INS promoter inh – TRM-6 insulin promoter activity inhibition | TRM-6 cells (human fetal islet line), insulin promoter-eGFP reporter, imaging; reporter expression induced with tamoxifen | inhibition, % at 2 µM | hit rate 0.9% among 130,000;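 active means inhibition above the mean plus 3 SD, with well images judged a real hit on visual review, cut at about 60% in these data, passing the limit was not always enough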
HSV replic up – increases HSV replication in cells; HSV replication augmentation in cells, fold increase; maximum fold increase; hit rate 0.005% among 220,000;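 active means peak rise of 1.5-fold or more in the series; tested in PC3 cells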;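 further: first round at 10 µM; read as green reporter fluorescence; hits show the peak of a series up to 25 µM; 1 = signal of infected wells without compound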
GALR2 ag – activates the human galanin receptor 2; O43603; GALR2-expressing cells, agonist activation read-out; activation, %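 (tested at 5 µM)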; hit rate 0.48% among 140,000; AID 803;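 active means above mean plus 3 SD of all compounds, about 5% in these data, not always enough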;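 further: 0% = vehicle buffer wells and 100% = reference agonist at full effect; tested in CHO reporter cells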
RGS16-Gao – modulates binding between human RGS16 and Galphao; hit rate 0.38% among 220,000; AID 1441; binding response (% of control), % at 10 µM; bead-based flow cytometry RGS16-Galphao binding, fluorescence; actives lie on both sides;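 active means below 25% or above 175%, edge rows of some plates excepted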;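 further: Galphao activated by GDP with aluminum fluoride before binding; 100% = wells without compound and 0% = beads without RGS; some results beyond the cut were filed as inactive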
PKD1 inh – PKD1 (human) kinase inhibition | AID 797 | inhibition, %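 (about 10 µM by stock and volumes)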 | PKD1 kinase fluorescence polarization assay | hit rate 0.056% among 200,000;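 active means inhibition of 50% or more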;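 further: controls were vehicle for no effect and a reference inhibitor for full effect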
Target sequence (Q15139 whole entry, looked up): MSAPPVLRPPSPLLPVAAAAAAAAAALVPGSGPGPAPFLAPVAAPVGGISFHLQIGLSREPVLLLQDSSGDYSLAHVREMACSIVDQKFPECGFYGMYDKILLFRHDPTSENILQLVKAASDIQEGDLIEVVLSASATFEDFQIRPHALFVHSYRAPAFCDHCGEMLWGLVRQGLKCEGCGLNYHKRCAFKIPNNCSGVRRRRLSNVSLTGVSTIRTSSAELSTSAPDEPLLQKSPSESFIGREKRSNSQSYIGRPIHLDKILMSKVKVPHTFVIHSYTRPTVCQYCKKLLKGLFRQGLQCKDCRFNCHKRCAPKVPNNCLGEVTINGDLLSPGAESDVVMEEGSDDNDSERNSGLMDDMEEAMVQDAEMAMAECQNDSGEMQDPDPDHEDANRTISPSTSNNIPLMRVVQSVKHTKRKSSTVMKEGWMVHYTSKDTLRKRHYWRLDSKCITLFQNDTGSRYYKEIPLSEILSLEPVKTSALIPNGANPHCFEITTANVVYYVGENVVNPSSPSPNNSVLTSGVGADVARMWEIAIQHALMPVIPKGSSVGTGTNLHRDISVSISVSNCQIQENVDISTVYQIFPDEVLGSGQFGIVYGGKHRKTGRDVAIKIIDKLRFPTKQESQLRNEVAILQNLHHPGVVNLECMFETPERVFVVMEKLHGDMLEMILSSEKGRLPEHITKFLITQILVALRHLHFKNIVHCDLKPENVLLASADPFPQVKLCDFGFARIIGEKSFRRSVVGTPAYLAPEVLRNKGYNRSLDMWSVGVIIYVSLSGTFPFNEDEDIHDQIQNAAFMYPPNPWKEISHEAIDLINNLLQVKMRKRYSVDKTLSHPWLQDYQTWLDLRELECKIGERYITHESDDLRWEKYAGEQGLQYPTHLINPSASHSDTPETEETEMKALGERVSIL
INS promoter inh cell count – further read-out of INS promoter inh, marked with its call; normalized cell count, %; measured here: cell count, toxicity; reference of the scale not given here;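 cells exposed to compound for 48 h; stained nuclei by imaging scaled within each plate; lower means fewer cells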
HSV replic up primary fold – recorded beside HSV replic up, whose call it bears; fold increase; compound at 10 µM; measured here: primary screen fold increase 10 uM; tested in PC3 cells;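 GFP signal in the first replicate; 1 = infected wells without compound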
The depositor's hits bear a star; i = inactive; / = not tested or not shown.

SMILES	INS promoter inh	INS promoter inh cell count	HSV replic up	HSV replic up primary fold	GALR2 ag	RGS16-Gao	PKD1 inh
CC1CC(NC(=O)N(C)C)N(C)C(=O)N1 (centres undefined)	-33.3	58.4	i	1.06	-2.3	97.6	2.4
Cc1ccccc1N1CC(=O)N(c2ccccc2C)CC1=O	7.1	132.5	i	1	0.1	101.8	0.6
COc1ccc(OC)c(CNC(=O)CCCc2cn(C)c3ccccc23)c1	-70.0	74.3	/	/	-0.1	90.2	0.9
COc1ccc(C(=O)/C=C/Nc2ccc(S(=O)(=O)Nc3onc(C)c3C)cc2)cc1	29.9	103.6	i	0.99	-0.9	96.4	-6.2
c1ccc(-c2noc(-c3ccc4ccccc4c3)n2)nc1	-43.9	79.8	i	1	-2.0	101.0	-5.7
CC(C)CN1C(=O)C(=Nc2cccnc2)c2ccccc21	/	/	i	1.01	/	101.2	1.0
COCCn1c(C)cc2c(c1=O)C(c1ccccc1F)C(C#N)=C(N)O2 (centres undefined)	34.6	117.5	i	0.83	-1.2	101.0	3.6
CC(=O)Nc1cccc(OCC(O)Cn2c(C)nc3ccccc32)c1 (centres undefined)	-238.1	51.4	i	0.84	-2.5	99.0	-7.6
Cc1noc(-c2ccccc2)c1NC(=O)Nc1ccc(Cl)cc1	/	/	i	0.9	/	105.5	/
Cc1ccc2c(Cl)cc(Cl)c(OCC(=O)N3CCCC3)c2n1	/	/	i	0.9	/	99.8	0.4
S=c1[nH]nc(C2CCCCC2)n1/N=C/c1ccco1	7.7	74.0	/	/	-1.1	83.0	-4.8
O=C(CCn1cnc2ccccc21)N/N=C/C=C/c1ccccc1	/	/	i	0.94	/	102.5	/
COC(=O)c1ccc(NC(=O)Cn2nnc3ccccc32)cc1	16.9	136.1	i	1.03	-2.4	80.4	-9.3
CC1CCN(C(=O)COc2cccc3c2CCN(C)C3=O)CC1	-127.3	42.9	i	1.03	/	99.6	-9.6
CN1CCc2nc3ccc(Cl)cc3c(-c3ccccc3Cl)c2C1	/	/	i	1.29	-1.0	108.7	6.9
COc1ccc(CC(=O)Nc2ncc([N+](=O)[O-])s2)cc1OC	21.4	137.4	i	1.06	/	65.0	-1.1
Cc1nn(CC(=O)N(C)Cc2ccc(F)cc2)c(C)c1[N+](=O)[O-]	/	/	i	1.18	-0.5	26.8	-0.6
COC(=O)C1=CN(CC2CCCO2)C=C(C(=O)OC)C1c1ccccc1C(F)(F)F (centres undefined)	-8.6	51.4	i	1.1	11.9*	122.7	-0.6
CCOC(=O)N1CCN(C(=O)C2CCC(CNS(=O)(=O)c3ccc(Cl)cc3)CC2)CC1 (centres undefined)	-21.4	175.9	i	0.98	-3.3	106.6	-7.3
CCOc1ccc(N(C(=O)/C=C/C(=O)Nc2cc(C)on2)C(C(=O)NC2CCCC2)c2ccccc2C)cc1 (centres undefined)	10.7	105.5	i	0.48	-0.5	99.0	-11.9

Reformatted with values under each structure: four of the compounds above.
Every second line gives: INS promoter inh	INS promoter inh cell count	HSV replic up	HSV replic up primary fold	GALR2 ag	RGS16-Gao	PKD1 inh
- COc1ccc(OC)c(CNC(=O)CCCc2cn(C)c3ccccc23)c1
→ -70.0	74.3	/	/	-0.1	90.2	0.9
- COc1ccc(C(=O)/C=C/Nc2ccc(S(=O)(=O)Nc3onc(C)c3C)cc2)cc1
→ 29.9	103.6	i	0.99	-0.9	96.4	-6.2
- c1ccc(-c2noc(-c3ccc4ccccc4c3)n2)nc1
→ -43.9	79.8	i	1	-2.0	101.0	-5.7
- CC(C)CN1C(=O)C(=Nc2cccnc2)c2ccccc21
→ /	/	i	1.01	/	101.2	1.0

The results go on.
SMILES	INS promoter inh	INS promoter inh cell count	HSV replic up	HSV replic up primary fold	GALR2 ag	RGS16-Gao	PKD1 inh
C/C(=N/NC(=O)c1ccccc1O)c1ccc(N2C(=O)C3CCCCC3C2=O)cc1 (centres undefined)	14.7	73.4	i	0.99	-0.2	99.4	5.3
COc1ccc(C(=O)N2CCCC(CCC(=O)NCc3ccc(F)c(F)c3)C2)o1 (centres undefined)	-133.3	99.0	i	1.11	/	105.3	-6.1
O=C(O)/C=C/C(=O)NCCNc1ncc(C(F)(F)F)cc1Cl	/	/	i	1.02	/	109.3	-0.3
CC(C)n1c(CSCc2ccc(Cl)cc2Cl)n[nH]c1=S	/	/	i	1.05	/	99.4	-1.9
CC1=C(c2ccc(F)cc2)[N+](=O)C(C)(C)N1[O-]	-14.3	128.8	i	0.96	/	103.4	1.9
Cc1nc2sc(C(c3ccco3)N3CCN(c4ccc(F)cc4)CC3)c(O)n2n1 (centres undefined)	/	/	i	0.97	/	126.4	9.4
O=Cc1cccn1-c1ccc2ccccc2c1	-23.5	107.7	i	1.15	/	98.2	-5.7
COc1ccc(C(=S)N2CCN(c3ccccc3Cl)CC2)cc1OC	/	/	i	0.97	/	113.8	/
O=C(CC12CC3CC(CC(C3)C1)C2)NCC(=O)OCc1cc(=O)oc2ccc3ccccc3c12	/	/	i	0.85	-0.1	102.9	-4.3
Cc1ccccc1-n1c(C)nnc1SCc1nc2ccccc2s1	/	/	i	1.05	-1.7	102.7	-5.5
Cn1c(CCNC(=O)c2ccccc2)nc2ccccc21	-8.2	108.0	i	0.85	-3.5	99.2	-11.0
COCCCN(C(=S)NC(=O)c1ccc(Br)cc1)c1c(N)n(Cc2ccccc2)c(=O)[nH]c1=O	/	/	i	0.96	/	100.7	13.8
O=C(NC1CCCC1)c1ccccc1-c1nc2ccccc2[nH]1	10.3	44.7	i	0.93	-1.4	109.7	-8.1
COc1cc(OC)cc(-c2cn[nH]c2N)c1	/	/	i	0.87	/	101.2	-1.2
CCCN1C(=O)c2cc(C(=O)O)ccc2C1O (centres undefined)	/	/	i	0.71	-1.8	100.9	-8.8
O=C(/C=C\Nc1ccc2c(c1)OCO2)c1ccc(Cl)s1	/	/	i	0.94	/	100.1	-4.6
CN(Cc1ccccc1)c1ccc(S(=O)(=O)N2CCOCC2)cn1	-5.1	105.0	i	0.9	-1.1	85.0	-5.2
CCS(=O)(=O)Nc1cccc(C2=NN(S(=O)(=O)c3ccc(F)cc3)C(c3cccs3)C2)c1 (centres undefined)	/	/	i	0.71	0.3	103.5	-15.2
CC(CN1CCCCC1)OC(=O)C1c2ccccc2Oc2ccccc21 (centres undefined)	30.6	136.1	i	0.98	-1.0	102.7	-3.9
O=S(=O)(c1ccccc1)c1nc(-c2ccco2)oc1NCc1ccco1	18.8	116.4	i	0.81	-2.9	89.5	-4.9
C[n+]1cc[nH]c1SCC(=O)c1ccc(Cl)cc1	/	/	i	0.99	/	102.1	2.3
Cc1nn(C)c(Oc2cccc(Cl)c2)c1C#N	/	/	i	0.94	/	102.2	4.6
COCCN(CCOC)C(=O)COC(=O)c1ccc(Cl)c(S(=O)(=O)N(C)c2ccccc2)c1	-60.0	67.4	i	1.01	/	102.0	-2.2
C=CCn1c(Oc2ccccc2)nc2c1c(=O)n(C)c(=O)n2C	/	/	i	0.79	/	103.2	1.2
Cc1cc(C)cc(OCC(=O)Nc2cccc(-c3nc4ncccc4o3)c2)c1	/	/	i	0.7	-2.7	99.0	5.5
Cc1cc(=O)[nH]c(SCC(=O)NCCc2ccccc2)n1	17.1	135.2	/	/	-1.9	105.3	-3.8
CC(C)(C)c1[nH]nc2c1C(C1C=CCCC1)C(C#N)=C(N)O2 (centres undefined)	44.4	64.8	i	0.62	-1.3	93.5	-2.0
Cc1ccccc1OCC(=O)NN1Cc2ccccc2C1=N	0.0	50.0	i	1.02	-2.0	69.9	-3.0
Cc1csc(NC(=O)c2ccc(C)o2)n1	20.0	91.5	i	0.96	0.0	100.3	16.8
C(=C/c1ccnc2nc(SC/C=C/c3ccccc3)nn12)/c1ccccc1	-73.3	98.2	i	0.7	-2.7	107.1	-8.1
COc1ccc(C(=O)O/N=C(\C)c2cnccn2)cc1	/	/	i	1.06	/	101.0	-4.7
CC(=O)N1CCN(c2ccc(NC(=O)C(C)Oc3ccc(Cl)cc3Cl)cc2)CC1 (centres undefined)	-21.4	143.5	/	/	-1.6	106.6	-4.1
CC1CCN(c2[nH]c(=S)c(C#N)c3c2CCCC3)CC1	59.1	105.1	i	1.11	-2.5	90.8	-6.9
O=C(Cc1ccccc1)NCc1ccc2c(c1)OCO2	10.0	57.1	i	1.01	-1.9	107.5	-4.8
CC1Cc2nc(SCC(N)=O)n(C)c(=O)c2S1 (centres undefined)	20.0	72.7	i	1.1	-2.3	105.9	2.8
Cc1cccc(CN2CCN(c3nc4nonc4nc3NC3CC3)CC2)c1	/	/	i	1.21	/	98.2	1.1
Cc1cc(C(=O)N/N=C/c2cccnc2)c(C)o1	-37.5	47.0	i	0.97	-3.0	101.0	2.3
CCOC(=O)Cc1csc(NC(=O)c2cccs2)n1	/	/	i	0.94	-0.5	100.7	-4.9
COc1cc(/C=C/c2ccc3cccc(OC)c3n2)c(OC(C)=O)c([N+](=O)[O-])c1	-46.1	74.8	i	0.52	-2.1	107.8	1.9
O=C(COC(=O)c1cccnc1Cl)Nc1ncc(Cl)cc1Cl	/	/	i	0.89	/	102.7	-7.3

By substructure, the compounds so far with a CF3 group (two)
SMILES	INS promoter inh	INS promoter inh cell count	HSV replic up	HSV replic up primary fold	GALR2 ag	RGS16-Gao	PKD1 inh
COC(=O)C1=CN(CC2CCCO2)C=C(C(=O)OC)C1c1ccccc1C(F)(F)F (centres undefined)	-8.6	51.4	i	1.1	11.9*	122.7	-0.6
O=C(O)/C=C/C(=O)NCCNc1ncc(C(F)(F)F)cc1Cl	/	/	i	1.02	/	109.3	-0.3

Other results follow:
SMILES	INS promoter inh	INS promoter inh cell count	HSV replic up	HSV replic up primary fold	GALR2 ag	RGS16-Gao	PKD1 inh
COc1ccc(CN(C)CC(=O)Nc2cccc(S(N)(=O)=O)c2)c(OC)c1OC	40.0	109.5	i	0.93	/	102.5	4.9
CCOC(=O)C(CCCCOc1ccc([N+](=O)[O-])cc1)C(=O)OCC	0.0	86.1	i	0.89	-3.4	106.7	5.9
Cc1nc(Nc2cccc(C(C)O)c2)c2nnn(Cc3ccc(F)cc3)c2n1 (centres undefined)	25.0	111.2	i	0.99	/	92.4	2.0
CCn1cc(C(=O)NCCCOC)c(=O)c2cc(S(=O)(=O)N(C)C)ccc21	/	/	i	1.17	0.1	100.8	8.2
COc1ccc(S(=O)(=O)Nc2ccccn2)cc1C	/	/	i	1.11	/	60.5	-14.8
O=C(N/N=C/c1ccc(Cl)cc1)C1CC12CCC2 (centres undefined)	-15.4	125.2	i	0.97	/	100.8	5.5
CCCN(/C=N/c1sc2c(c1C#N)CCCCC2)CCC	5.6	95.6	i	0.99	-1.3	105.1	-3.5
CCCn1c(SCC(=O)N2CCCc3ccccc32)nnc1-c1ccco1	/	/	i	0.923	-2.9	100.0	3.5
Cc1c(CNC(=O)c2cnn3c2NC(c2ccccc2)CC3C(F)(F)F)cnn1C (centres undefined)	/	/	i	0.77	0.0	96.5	8.4
CN(C)c1ccc(CNC2C3CC4CC(C3)CC2C4)cc1 (centres undefined)	-34.3	90.7	i	0.96	-0.6	105.0	-4.7
Cc1ccc(C(=O)NCCn2cc(SCC(=O)Nc3cc(C)on3)c3ccccc32)cc1	/	/	i	1.01	-2.0	100.1	-11.7
COc1cc(NC(=S)NCCCN2CCOCC2)cc(OC)c1	18.8	121.4	i	0.9	-2.8	98.8	9.3
NS(=O)(=O)c1cccc(NC(=O)CCSc2ccccc2Cl)c1	-26.7	59.8	i	0.96	-0.4	108.8	1.9
Cc1ccccc1/C=C/C(=O)N1CCOCC1	/	/	i	1.04	/	107.6	-7.7
O=C(Nc1ccon1)c1ccc(Br)o1	-13.2	81.8	i	0.94	-0.5	101.7	-4.9
NS(=O)(=O)c1cccc(NC(=O)CCS(=O)(=O)c2ccc(Cl)cc2)c1	-20.0	110.7	i	0.97	/	106.4	3.3
Nc1ccc(N2CCN(c3ccc(Cl)c(Cl)c3)CC2)cc1	43.3	95.4	i	0.77	-0.6	94.7	1.5
CCCCc1ccc(-c2csc(/C(C#N)=C\c3ccc(C)o3)n2)cc1	33.3	90.2	i	0.89	-2.1	96.9	5.7
Cc1cc(C)cc(N(C(=O)c2cccs2)C2C=CS(=O)(=O)C2)c1 (centres undefined)	55.6	129.2	i	0.99	/	99.5	-1.1
O=CN1CCCN(Cc2nc(-c3cccc(Cl)c3)no2)CC1	/	/	i	0.94	/	95.1	1.2
O=C(NCc1cccnc1)C1CCCN(S(=O)(=O)c2ccc(Cl)cc2)C1 (centres undefined)	-2.6	96.5	i	0.65	0.4	117.3	-8.0
Cc1cccc(/C=N/Nc2nncc3ccccc23)c1	/	/	i	0.93	/	102.2	2.5

High-throughput results deposited in PubChem by several laboratories.
